Screening results from PubChem.
NPYLR7 ag: mosquito NPYLR7 agonism; AID 1259423; activation, % at 10 µM; HEK293T NPYLR7/Galpha15, GCaMP6s calcium fluorescence; 270,000 compounds, 0.15% hits; in the data active = activation above about 40%;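 also: 0% = vehicle and 100% = reference agonist at the receptor; some compounds past the cut are filed as inactive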
NPYLR7 ag max-min: second read-out of NPYLR7 ag, no call of its own (marks repeat the call); activation, %; measured here: Max-Min RFU normalised activation; some inactives read as strong as hits;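 span of the calcium signal over five minutes; 0% = vehicle and 100% = native peptide agonist; compound fluorescence can raise it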
Starred values were filed as active, the others as inactive; & = joins results of further samples. Only part of the results is shown; the hit share may differ from the screen's.

1: COc1ccc(CN2CCC(C(=O)NC(c3ccc(F)cc3)c3nc(OC)cc(OC)n3)CC2)cc1 (stereo not drawn)
2: COc1ccccc1CCNC(=O)CN1CN(c2ccccc2)C2(CCN(C(=O)c3ccccc3Cl)CC2)C1=O
3: CCN(CCc1nc2ccc(F)cc2[nH]1)C(=O)c1c[nH]c(=O)[nH]1
4: COc1ccc(C(=O)NCc2cccnc2)cc1C(=O)NCc1cccnc1
5: COc1ccc(-c2cc(C(=O)Nc3ccc(C)c(F)c3)c3ccccc3n2)cc1
6: CS(=O)(=O)N1CCC2(CC1)NC(=O)N(Cc1ccccc1)C2=O
7: CN(C)CCCNC(CC(=O)Nc1ccc2ccccc2c1)C(=O)O (stereo not drawn)
8: CCCc1cc(CN(C)C(=O)C2COC(=O)N2)[nH]n1 (stereo not drawn)

| assay / compound | 1 | 2 | 3 | 4 | 5 | 6 | 7 | 8 |
| --- | --- | --- | --- | --- | --- | --- | --- | --- |
| NPYLR7 ag | 5 | -4 | 11 | -3&5 | -16 | 4 | 4 | 0 |
| NPYLR7 ag max-min | 5 | 0 | 9 | -4&-35 | -22 | 5 | 0 | -12 |

9: COCCN1C(=O)N(Cc2ccccc2)C2(CCN(Cc3ccc(OC)c(OC)c3OC)CC2)C1=O
10: CC(=O)Oc1cn(CC2CCCO2)c2nc(C)n3c4ccccc4nc3c12 (stereo not drawn)
11: CC(C)Nc1ccc(F)cc1Cl
12: Cc1cc(C)c(C)c(S(=O)(=O)N2CCN(C(=O)c3ccccn3)CC2)c1C
13: CCCCCCC(=O)Nc1ccc(N2CCCC2)c(C(=O)NCc2ccccc2)c1
14: COc1ccc(OC)c(C2CCN(C(=O)CCNC(=O)c3ccc(F)cc3)C2)c1 (stereo not drawn)
15: COc1ccc(-c2[nH]n(-c3nc4ccccc4s3)c(=O)c2C=NCCN2CCOCC2)cc1
16: Nc1nn2c(-c3ccccc3)ccnc2c1[N+](=O)[O-]

| assay / compound | 9 | 10 | 11 | 12 | 13 | 14 | 15 | 16 |
| --- | --- | --- | --- | --- | --- | --- | --- | --- |
| NPYLR7 ag | 14 | -10 | 19 | 10 | -3 | 13 | -3 | -3 |
| NPYLR7 ag max-min | 1 | -12 | 7 | 9 | 6 | 8 | -8 | -3 |

17: S=C(NCC1CCCO1)NN=Cc1c[nH]c2ccccc12 (stereo not drawn)
18: Cc1ccc(NC(=O)c2c(F)cccc2Cl)c(C(=O)O)c1
19: COCCN1CCC(C(=O)N2CCC3(CCc4ccccc43)CC2)C1 (stereo not drawn)
20: CCOC(=O)c1ccc2c(c1)nc(SCc1ccccc1CS(=O)(=O)c1ccccc1)n2Cc1ccccn1
21: CCOc1ccc2nc(N3CCN(C(=O)c4ccn(C(C)C)n4)CC3)sc2c1
22: NC(=O)Cn1nc(-c2ccc3ccccc3c2)ccc1=O
23: Cc1cccc(NC(=O)c2cn(-c3cc(N(C)C)ncn3)cn2)c1
24: COc1cc([C@H]2C[C@@H](NC(C)=O)C[C@@H](COCc3ccccc3)O2)ccc1F

| assay / compound | 17 | 18 | 19 | 20 | 21 | 22 | 23 | 24 |
| --- | --- | --- | --- | --- | --- | --- | --- | --- |
| NPYLR7 ag | 2 | -8 | 3 | -6 | 1 | 9 | -9 | 2 |
| NPYLR7 ag max-min | 3 | -11 | 1 | -8 | 6 | 2 | -8 | 0 |

25: O=C(c1ccco1)N1N=C(c2ccccc2)CC1c1cc2cc3c(cc2nc1Cl)OCCO3 (stereo not drawn)
26: Cc1ccc(C2c3ccc(O)cc3Oc3ncn(CCCn4ccnc4)c(=N)c32)cc1 (stereo not drawn)
27: O=C(NCCn1ncc2c(N3CCCCC3)ncnc21)c1cccc(C(F)(F)F)c1
28: COC(=O)c1ccc(NC(=O)c2ccc(Br)o2)cc1
29: CN(C)S(=O)(=O)N1CCN(c2ccccn2)CC1
30: C1CCc2c(sc3nc(C4CC4)nc(NCC4(N5CCOCC5)CCSC4)c23)C1 (stereo not drawn)
31: Nc1ncnc2sc3c(c12)CCNC3
32: N#Cc1c(SCc2ccccc2)n[nH]c1-c1cccs1

| assay / compound | 25 | 26 | 27 | 28 | 29 | 30 | 31 | 32 |
| --- | --- | --- | --- | --- | --- | --- | --- | --- |
| NPYLR7 ag | -5 | -3 | 0 | 22 | 1 | 14 | 1 | 10 |
| NPYLR7 ag max-min | -1 | -6 | -2 | 20 | 2 | 11 | 7 | 4 |

33: CC(NC(=O)c1cccc(S(=O)(=O)N2CCCC2)c1)C1CC1 (stereo not drawn)
34: O=C(c1ccccc1Br)n1sc(=O)c2ccccc21
35: CC(C)CC(CNC(=O)C1CC1C)NC(=O)C1CC1C (stereo not drawn)
36: COCC(C)NCCc1cnn(-c2ccccc2)c1 (stereo not drawn)
37: Cn1cc(CCCN2CCOC(CNc3cccnn3)C2)cn1 (stereo not drawn)
38: CS(=O)(=O)Oc1ccc(CN(Cc2ccccc2)C(=O)NC23CC4CC(CC(C4)C2)C3)cc1
39: Cc1ccc(F)c(N2C(=O)CSC2c2ccc(NC(=O)C(C)(C)C)cc2)c1 (stereo not drawn)
40: CN1CCN(C(=O)c2cc3c(=O)n4ccccc4nc3n2C)CC1

| assay / compound | 33 | 34 | 35 | 36 | 37 | 38 | 39 | 40 |
| --- | --- | --- | --- | --- | --- | --- | --- | --- |
| NPYLR7 ag | -6 | -1 | 13 | 0 | 0 | 12 | 18 | -5 |
| NPYLR7 ag max-min | -6 | -2 | 9 | -5 | 3 | 12 | 21 | -7 |

41: COc1ccc(C(NC(=O)c2oc3ccc(Cl)cc3c2C)c2nccn2C)cc1 (stereo not drawn)
42: CC(=O)Nc1cccc(Nc2cc3c(cn2)cc(-c2cnn(C)c2)n3Cc2ccccc2)c1
43: Cc1cnc(C(=O)N2CCCC(N3CCN(Cc4ccc5c(c4)OCO5)CC3)C2)cn1 (stereo not drawn)
44: CC(=O)Nc1ccc(OCC(O)CON=C2c3ccccc3-c3ccccc32)cc1 (stereo not drawn)
45: COc1ccc(C(=O)N2CCCC(CCC(=O)N3CCN(Cc4ccccc4)CC3)C2)cc1 (stereo not drawn)
46: CCOc1cc2c(cc1C=C(C#N)C#N)OC(C)C2 (stereo not drawn)
47: OCCN1CCN(CCCc2c3c(cc4c2CCC4)CCC3)CC1
48: CNc1nn(CC(=O)N2CCN(c3ccccc3F)CC2)c(N)c1-c1nc(-c2ccc(C)cc2)no1

| assay / compound | 41 | 42 | 43 | 44 | 45 | 46 | 47 | 48 |
| --- | --- | --- | --- | --- | --- | --- | --- | --- |
| NPYLR7 ag | 4 | -16 | 18&0 | 4 | 3 | 95* | -3 | 0 |
| NPYLR7 ag max-min | -1 | -15 | 9&-3 | 3 | 2 | 113* | -5 | -5 |

49: O=C(NC(C(=O)Nc1ccccc1)C1CCN(C(=O)c2cccs2)CC1)c1ccc(F)cc1 (stereo not drawn)
50: COCCN(Cc1ccccc1F)Cc1ccnc2ccccc12
51: O=C(C1COc2ccccc2O1)N1CCc2ccccc21 (stereo not drawn)
52: CC(C)Cc1cc(CNC(=O)c2ccc(NC(=O)C3CCC3)cc2)on1
53: OC1(CNc2ncc(F)cn2)CCCNCC1 (stereo not drawn)
54: COc1ccccc1C(=O)N=Nc1c(O)[nH]c2c(C)cc(C)cc12
55: CN(CC1Cc2ccccc2O1)C(=O)c1cc(COc2ccccc2F)[nH]n1 (stereo not drawn)
56: COc1ccc2c(c1)c(C#N)c1n2CCN=C1N(C)C

| assay / compound | 49 | 50 | 51 | 52 | 53 | 54 | 55 | 56 |
| --- | --- | --- | --- | --- | --- | --- | --- | --- |
| NPYLR7 ag | 9 | 19 | 3 | 5 | 25 | -1 | 18 | 4 |
| NPYLR7 ag max-min | 11 | 8 | 4 | -3 | 16 | -7 | 9 | 1 |

57: Cn1cc(S(N)(=O)=O)cc1C(=O)O
58: CC1(C)OC(=O)C(=CNc2ccc(S(=O)(=O)N=C(N)N)cc2)C(=O)O1
59: COc1ccc(C(=O)N2CCOC(C(F)(F)F)C2)c(OC)c1OC (stereo not drawn)
60: C=CCC1c2cccc(C(=O)O)c2C(=O)N1c1cccc(C)c1 (stereo not drawn)
61: CC(C)(C)c1cc2nc(C(=O)N3CCN(C(c4ccccc4)c4ccccc4)CC3)cc(-c3ccc(F)cc3)n2n1
62: COCCn1cc(NC(=O)NCc2ccc(Cl)cc2)c2ccccc21
63: Cc1nn(CC(=O)Nc2cccc3c(=O)[nH][nH]c(=O)c23)c(C)c1Cl
64: Cc1ccc(NC(=O)NC(=O)CN2CCC(C)CC2)c(C)c1

| assay / compound | 57 | 58 | 59 | 60 | 61 | 62 | 63 | 64 |
| --- | --- | --- | --- | --- | --- | --- | --- | --- |
| NPYLR7 ag | 7 | 10 | 5 | -11 | 17 | 16 | 11 | -9 |
| NPYLR7 ag max-min | 13 | 14 | 1 | -16 | 14 | 8 | 10 | -6 |

65: N#Cc1cn(-c2cccc([N+](=O)[O-])c2)nc1N=CC(C#N)C#N
66: CC(=O)C1=C(c2cccs2)N(C(C)=O)n2c(nnc2-c2ccccc2)S1
67: O=C(c1cc2ccsc2n1Cc1ccccc1F)N1CCN(Cc2ccccc2)CC1
68: CN(C(=O)c1cc(Br)ccc1F)c1cc(Cl)ccc1C#N
69: Cc1cccc(C2c3[nH]c4ccccc4c3CCN2C(=O)CCN2CCCCO2)n1 (stereo not drawn)
70: Cc1ccc(CN(C)C(=O)NCc2nnc3n2CCCCC3)c(C)c1
71: CCOc1ccc(N2CC(C(=O)O)CC2=O)cc1C(F)(F)F (stereo not drawn)
72: COCc1nc(-c2ccccc2)nc(N2CCN(C(=O)c3cccs3)CC2)c1Cc1cccc(Cl)c1

| assay / compound | 65 | 66 | 67 | 68 | 69 | 70 | 71 | 72 |
| --- | --- | --- | --- | --- | --- | --- | --- | --- |
| NPYLR7 ag | 10 | 3 | -2 | 3 | 4&-3 | 7 | -4 | 18 |
| NPYLR7 ag max-min | 7 | 1 | 2 | -1 | 1&-5 | 6 | -8 | 17 |

73: Cc1cc(N(C)C2CCCCC2)nc(SCc2cccc(C(=O)NCC3CCCO3)c2)n1 (stereo not drawn)
74: Cc1ccccc1N1CCCN(Cc2cc3n(n2)CCNC3)CC1
75: Cc1nc(CC(=O)NC2CCc3[nH]c4ccc(Br)cc4c3C2)c(C)s1 (stereo not drawn)
76: CONc1nc(NC(C)(C)C)nc(OCC#N)n1
77: COCCOC(=O)C1=C(C)NC2=C(C(=O)C(C(=O)OC)C(C)C2)C1c1ccc(C)o1 (stereo not drawn)
78: CCC(=O)N1CCCC(C(=O)NC(C)(C)c2ccc3c(c2)OCO3)C1 (stereo not drawn)
79: Cc1cc(NCCN(C)C)n2nc(C)c(-c3ccc(Cl)cc3)c2n1
80: CC1CCN(Cc2nnnn2CC(=O)N2CCCC2c2nccs2)CC1 (stereo not drawn)

| assay / compound | 73 | 74 | 75 | 76 | 77 | 78 | 79 | 80 |
| --- | --- | --- | --- | --- | --- | --- | --- | --- |
| NPYLR7 ag | 5 | 2 | -3 | 5 | 0 | 8 | -3 | 0 |
| NPYLR7 ag max-min | 2 | 1 | 7 | 3 | -2 | 9 | -4 | -2 |

81: Cc1cc(N2CCCC2)ccc1NC(=O)CCc1ccsc1
82: Cc1ccc(-c2nc(C)c(C(C)C)c(N3CCN(C(=O)c4ccc(F)cc4)CC3)n2)cc1
83: CN(c1ncccc1CNC(=O)C1CCOCC1)C1CCCCC1
84: C#CCn1c(=NC(=O)CCS(=O)(=O)c2ccccc2)sc2c(OC)ccc(OC)c21
85: COCC(=O)N1CCSC12C(=O)N(Cc1cccc(C(F)(F)F)c1)c1ccc(OC)cc12 (stereo not drawn)
86: O=S(=O)(c1cccc2cccnc12)n1nnc2ccccc21
87: O=C(NC1CC2CCC(C1)N2Cc1ccc2c(c1)OCO2)c1cc(C(F)(F)F)cc(C(F)(F)F)c1 (stereo not drawn)
88: Nc1nc(SCC(=O)NCCN2CCOCC2)nc2sc3c(c12)CCC3

| assay / compound | 81 | 82 | 83 | 84 | 85 | 86 | 87 | 88 |
| --- | --- | --- | --- | --- | --- | --- | --- | --- |
| NPYLR7 ag | 5 | 6 | 14 | 4 | -4 | 3 | 7 | 0 |
| NPYLR7 ag max-min | 4 | 15 | 0 | 3 | 4 | 0 | -7 | 0 |

89: Cc1nc(-c2cccs2)cs1
90: Cc1c(N2C(=O)/C(=C\c3ccco3)SC2=S)c(=O)n(-c2ccccc2)n1C
91: Cc1ccc(NC(=O)c2ccc3cc[nH]c3c2)cc1
92: O=S(=O)(NCCOc1ccc(-c2ccco2)nn1)c1ccc(F)cc1
93: CCN(C)c1cc(N2CCN(Cc3cc4ccccc4n3C)CC2)ncn1

| assay / compound | 89 | 90 | 91 | 92 | 93 |
| --- | --- | --- | --- | --- | --- |
| NPYLR7 ag | -8 | -2 | 2 | -1 | -1 |
| NPYLR7 ag max-min | -18 | -8 | 3 | -1 | -2 |
